DUX4 inh: DUX4-mediated transcription inhibition; 293T-iDUX4 ZSCAN4-Gaussia luciferase reporter, 24 h; stronger effect = lower value; AID 1224904; activity change, negative = inhibition, % (test concentration not listed); 37,000 compounds, 0.8% hits;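 active = -10% or lower and over 25 points stronger than a control reporter; inconclusive = -10% or lower with a smaller gap; inactive = above -10%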;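 also: 0% = median of neutral control wells and -100% = median of positive control wells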
DUX4 inh difference: recorded beside DUX4 inh, whose call it bears; Gaussia minus Italica difference, %; measured here: selective DUX4 reporter inhibition;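 worked out from the two reporters; negative = selective loss of the DUX4 reporter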
DUX4 inh control: recorded beside DUX4 inh, whose call it bears; activity change, negative = inhibition, %; measured here: Italica tet-on control reporter;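 0 = neutral control and -100 = positive control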
An asterisk follows results filed as active; ? = inconclusive; · = not tested or not shown; & = joins results of further samples. Only part of the results is shown (hit frequency here may not be typical).

Structure	DUX4 inh	DUX4 inh difference	DUX4 inh control
CO[C@H]1CN(C)C(=O)c2ccc(NC(=O)C3CC3)cc2OC[C@H](C)N(CCc2ccccc2)C[C@H]1C	-6.5	-10.7	4.2
C[C@@H]1CN([C@H](C)CO)S(=O)(=O)c2ccc(-c3ccncc3)cc2O[C@H]1CN(C)C(=O)Nc1ccc(F)cc1	-7.2	-4.2	-3.0
O=C(Nc1ccccc1F)N[C@H]1CC[C@@H](CC(=O)N2CCCCC2)O[C@H]1CO	1.6	-1.1	2.8
COc1ccc(-c2ccc([C@@H]3[C@@H](C#N)N(C(=O)C4CCC4)[C@H]3CO)cc2)cc1	-5.8	-2.3	-3.5
CCCC#Cc1ccc2c(c1)O[C@@H](CN(C)C(=O)Nc1ccc(OC)cc1)[C@H](C)CN([C@H](C)CO)S2(=O)=O	1.3	-3.0	4.2
CC(=O)N1Cc2cc(C(=O)NCC(F)(F)F)nc(-c3cccc(-c4cccnc4)c3)c2[C@H]1CCO	-5.0	-0.9	-4.1
CO[C@@H](C(=O)N(C)C[C@@H]1OCc2ccccc2-c2ccccc2C(=O)N([C@H](C)CO)C[C@H]1C)c1ccccc1	1.3	6.9	-5.7
O=C(C[C@@H]1CC[C@@H]2[C@H](COC[C@H](O)CN2C(=O)Nc2cc(Cl)cc(Cl)c2)O1)N1CCOCC1	0.3	3.9	-3.5
CCC(=O)N1[C@H](CO)[C@@H]2c3ccccc3N(S(=O)(=O)c3ccccc3C)C[C@@H]21	-0.9	-0.1	-0.8
O=C(NC1CCCCC1)N1CC(=O)N2[C@H](C1)[C@H](c1ccc(-c3ccncc3)cc1)[C@@H]2CO	16.6	16.0	0.5
COc1ccc2c3c([nH]c2c1)[C@H](CO)N(Cc1ccc(F)cc1)CC31CCN(Cc2ccccn2)CC1	?	·	·
CNC[C@@H]1OCCCC[C@H](C)Oc2ccc(NC(=O)c3ccncc3)cc2C(=O)N([C@H](C)CO)C[C@@H]1C	1.3	-1.0	2.2
COc1ccc2c3c([nH]c2c1)[C@@H](CO)N(C)CC31CN(C(=O)c2ccccn2)C1	-0.4	-0.3	-0.1
C[C@@H]1CN([C@H](C)CO)C(=O)Cc2cc(N(C)C)ccc2O[C@H]1CN(C)CC1CC1	-0.9	1.3	-2.1
C[C@@H]1CN([C@@H](C)CO)C(=O)c2cc(N(C)C)ccc2O[C@@H](C)CCCCO[C@@H]1CN(C)C(=O)NC1CCCCC1	-2.2	-0.8	-1.5
C[C@@H](NC(=O)C[C@@H]1CC[C@@H]2[C@@H](COc3ccc(NC(=O)C4CCOCC4)cc3C(=O)N2C)O1)c1ccccc1	-1.3	-1.1	-0.2
C[C@H](O)C#Cc1ccc2c(c1)O[C@H](CN(C)Cc1ccc(-c3ccccc3)cc1)[C@H](C)CN([C@@H](C)CO)S2(=O)=O	-1.7	1.0	-2.8
O=C(c1ccccc1F)N1CC2(C1)[C@@H](c1ccccc1)[C@@H](CO)N2CC1CCCC1	?	·	·
COc1ccc(S(=O)(=O)N(C)C[C@@H]2OCCCC[C@@H](C)Oc3ccc(NC(=O)Nc4cccc5ccccc45)cc3C(=O)N([C@@H](C)CO)C[C@@H]2C)cc1	-0.3	-4.9	4.6
COc1ccc(C(=O)Nc2ccc3c(c2)OC[C@H](C)NC[C@H](C)[C@@H](OC)CN(C)C3=O)cc1	2.0	0.1	1.9
CC=Cc1ccc2n(c1=O)C[C@@H]1[C@@H](CO)[C@H](C(=O)NCCc3ccncc3)[C@H]2N1CCC(F)(F)F (mixture of isomers)	-2.1	2.1	-4.2
Cc1ccccc1-c1ccc(C2[C@H]3CNC[C@@H]2N3Cc2cccnc2)cc1 (stereo partly drawn)	12.8	19.2	-6.4
COCC#Cc1cnc2c(c1)C(=O)N([C@H](C)CO)C[C@@H](C)[C@@H](CN(C)C(=O)c1cnccn1)O2	-0.9	-1.1	0.2
CCCNC(=O)N1CC2(C1)CN(C(=O)COC)[C@@H](CO)c1[nH]c3cc(OC)ccc3c12	4.2	1.5	2.7
CCCC#Cc1ccc2c(c1)[C@H]1[C@H](CCN1S(=O)(=O)c1cn(C)cn1)[C@H](CO)N2	24.7	20.7	3.9
CCCN(C)C[C@H]1Oc2cc(-c3ccc(F)cc3)ccc2S(=O)(=O)N([C@H](C)CO)C[C@H]1C	-0.2	-1.1	0.9
CN(C)CC#Cc1ccc([C@@H]2[C@H]3CN(C(=O)c4cccnc4)CC(=O)N3[C@H]2CO)cc1	7.1	-0.8	7.9
COc1ccc(-c2ccc3n(c2=O)C[C@@H]2[C@@H](CO)[C@H](C(=O)N(C)C)N(CC4CC4)[C@H]32)cc1	3.5	-0.7	4.2
CO[C@H](C(=O)N(C)C[C@H]1OCc2ccccc2-c2c(n(C)c3ccccc23)C(=O)N([C@H](C)CO)C[C@@H]1C)c1ccccc1	7.2	2.2	5.0
CO[C@H]1CN(C)C(=O)c2ccc(NC(C)=O)cc2OC[C@H](C)N(C(=O)c2cnccn2)C[C@@H]1C	3.5	-2.1	5.7
CO[C@H]1CN(C)C(=O)c2ccc(NC(=O)c3cccc(F)c3)cc2OC[C@@H](C)NC[C@H]1C	-4.4	-3.5	-0.9
CO[C@@H]1CN(C)C(=O)c2cc(NS(=O)(=O)c3ccc(F)cc3)ccc2OC[C@H](C)NC[C@H]1C	-2.6	2.1	-4.7
CC(C)(O)C#Cc1ccc([C@H]2[C@H]3CN(C(=O)c4cccnc4)CCCCN3[C@H]2CO)cc1	17.9	3.4	14.5
COc1ccc(C#Cc2ccc([C@H]3[C@H](CO)N4C(=O)CN(C(C)=O)C[C@@H]34)cc2)cc1	5.5	0.2	5.3
OC[C@@H]1[C@@H](c2ccc(Br)cc2)[C@H]2CN(Cc3cncnc3)CCCCN12	3.5	3.9	-0.4
C[C@@H]1CCCCO[C@@H](CN(C)CC2CCCCC2)[C@@H](C)CN([C@@H](C)CO)C(=O)c2cc(NC(=O)Nc3ccc(C(F)(F)F)cc3)ccc2O1	3.3	5.1	-1.8
CO[C@@H]1CN(C)C(=O)c2cc(NC(=O)Cc3ccccc3)ccc2OC[C@H](C)NC[C@@H]1C	0.5	-2.1	2.6
C[C@H]1CN([C@@H](C)CO)C(=O)CCCn2cc(nn2)CO[C@@H]1CN(C)Cc1ccc(C(=O)O)cc1	1.8	-0.7	2.5
COC(=O)[C@@H]1[C@@H](CO)[C@@H]2Cn3c(cccc3=O)[C@@H]2N1C(=O)C1CCC1	7.6	11.3	-3.7
COc1ccccc1C(=O)Nc1ccc2c(c1)C(=O)N(C)[C@@H]1CC[C@H](CC(=O)NCCc3ccncc3)O[C@@H]1CO2	-0.1	-2.4	2.4
CCCNC(=O)N1[C@@H]2CNC[C@H]1C2c1ccc(-c2ccccc2)cc1 (stereo partly drawn)	12.6&12.5	1.0&13.7	11.6&-1.2
O=C(c1cccnc1)N1C[C@H]2[C@@H](c3ccccc31)[C@@H](CO)N2C(=O)Nc1ccc(F)cc1	2.5	1.9	0.6
CN(C)CC(=O)N1CC2(C1)[C@H](c1ccccc1)[C@@H](CO)N2C(=O)C1CCCCC1	5.0	-0.8	5.8
O=C(C[C@@H]1CC[C@@H]2[C@H](COC[C@H](O)CN2CC2CCOCC2)O1)NCc1ccc(Cl)cc1	5.0	7.5	-2.5
O=C(Nc1ccc(F)cc1)N1CC(=O)N2[C@@H](CO)[C@@H](c3ccc(C4=CCCC4)cc3)[C@@H]2C1	-4.8	4.4	-9.2
Cn1cnc(S(=O)(=O)N2CC[C@H]3[C@H](CO)Nc4ccc(-c5ccccc5)cc4[C@H]32)c1	26.2	20.8	5.5
CCCC#Cc1ccc([C@H]2[C@@H](CO)N3CCCCN(Cc4cccnc4)C[C@H]23)cc1	-9.5	-11.3	1.8
C[C@H]1CN([C@@H](C)CO)C(=O)c2c(c3ccccc3n2C)-c2ccccc2CO[C@H]1CN(C)Cc1ccc(Cl)c(Cl)c1	?	·	·
COc1cccc(-c2ccc3c(c2)[C@@H]2[C@@H](CCN2S(=O)(=O)c2ccccc2OC)[C@@H](CO)N3)c1	3.1	21.1	-18.0
CO[C@H]1CN(C)C(=O)c2cc(NC(=O)CC(F)(F)F)ccc2OC[C@@H](C)NC[C@H]1C	1.9	-1.9	3.8
O=C(C[C@@H]1C[C@H]2c3cc(NC(=O)c4ccc5c(c4)OCO5)ccc3O[C@H]2[C@H](CO)O1)NCCc1ccccc1	?	·	·
COc1ccc2c3c([nH]c2c1)[C@@H](CO)N(Cc1ccccc1F)CC31CN(C)C1	-9.2	-5.1	-4.1
CCS(=O)(=O)Nc1ccc2c(c1)C(=O)N(C)C[C@@H](OC)[C@H](C)CN(C(=O)CN(C)C)[C@@H](C)CO2	0.6	-1.7	2.3
CCCNC(=O)N1CC(=O)N2[C@H](CO)[C@@H](c3ccc(C#Cc4cccc(OC)c4)cc3)[C@H]2C1	-2.3	3.4	-5.6
COc1ccccc1CNC(=O)C[C@H]1CC[C@@H]2[C@H](COC[C@@H](O)CN2C(=O)Nc2ccc(F)cc2)O1	5.8	-0.6	6.4
CCC(=O)N1C[C@H]2[C@@H](c3ccccc31)[C@@H](CO)N2Cc1ccccc1OC	1.2	1.3	-0.1
CC(C)NC(=O)N1C[C@H]2[C@@H](c3ccccc31)[C@@H](CO)N2Cc1ccccc1	-3.7	1.7	-5.4
COc1ccc2c3c(n(C)c2c1)[C@H](CO)NCC31CCN(C(=O)c2cccc(F)c2)CC1	-0.6	-13.9	13.3
C[C@H]1CN([C@@H](C)CO)C(=O)c2cccc(NC(=O)Nc3ccc(C(F)(F)F)cc3)c2O[C@@H]1CN(C)S(=O)(=O)c1cn(C)cn1	2.2	-1.3	3.5
C[C@@H]1CN([C@H](C)CO)C(=O)c2cc(NC(=O)c3ccccc3)ccc2O[C@@H](C)CCCCO[C@H]1CN(C)Cc1ccc(C(F)(F)F)cc1	4.5	0.9	3.6

Compounds listed so far with a CF3 group, in the order listed:
Structure	DUX4 inh	DUX4 inh difference	DUX4 inh control
CC(=O)N1Cc2cc(C(=O)NCC(F)(F)F)nc(-c3cccc(-c4cccnc4)c3)c2[C@H]1CCO	-5.0	-0.9	-4.1
CC=Cc1ccc2n(c1=O)C[C@@H]1[C@@H](CO)[C@H](C(=O)NCCc3ccncc3)[C@H]2N1CCC(F)(F)F (mixture of isomers)	-2.1	2.1	-4.2
C[C@@H]1CCCCO[C@@H](CN(C)CC2CCCCC2)[C@@H](C)CN([C@@H](C)CO)C(=O)c2cc(NC(=O)Nc3ccc(C(F)(F)F)cc3)ccc2O1	3.3	5.1	-1.8
CO[C@H]1CN(C)C(=O)c2cc(NC(=O)CC(F)(F)F)ccc2OC[C@@H](C)NC[C@H]1C	1.9	-1.9	3.8
C[C@H]1CN([C@@H](C)CO)C(=O)c2cccc(NC(=O)Nc3ccc(C(F)(F)F)cc3)c2O[C@@H]1CN(C)S(=O)(=O)c1cn(C)cn1	2.2	-1.3	3.5
C[C@@H]1CN([C@H](C)CO)C(=O)c2cc(NC(=O)c3ccccc3)ccc2O[C@@H](C)CCCCO[C@H]1CN(C)Cc1ccc(C(F)(F)F)cc1	4.5	0.9	3.6

(further entries)
Compound	DUX4 inh	DUX4 inh difference	DUX4 inh control
CO[C@@H]1CN(C)C(=O)c2ccc(NC(=O)C3CC3)cc2OC[C@H](C)N(Cc2nccs2)C[C@H]1C	5.8	1.7	4.2
Cc1cc(C(=O)Nc2ccc3c(c2)C(=O)N(C)[C@H]2CC[C@@H](CC(=O)NCC(F)(F)F)O[C@H]2CO3)no1	-3.8	0.6	-4.4
C[C@@H]1CN([C@@H](C)CO)C(=O)c2c(c3ccccc3n2C)-c2ccccc2CO[C@H]1CN(C)Cc1ccc(-c2ccccc2)cc1	-2.3	0.6	-3.0
CN(C)C(=O)c1cccc(-c2ccc3c(c2)[C@@H]2[C@@H](CCN2C(=O)C2CCOCC2)[C@H](CO)N3)c1	?	·	·
CC(C)NC(=O)N1C[C@H]2[C@@H](c3ccccc31)[C@H](CO)N2C(=O)C1CCCC1	-3.4	-1.0	-2.4
C[C@@H]1CN([C@H](C)CO)C(=O)c2cc(-c3ccccc3)cnc2O[C@H]1CN(C)C(=O)c1ccccn1	1.2	0.5	0.7
C[C@H](CO)N1C[C@H](C)[C@@H](CN(C)S(C)(=O)=O)Oc2c(NC(=O)Nc3ccc4c(c3)OCO4)cccc2C1=O	-5.4	-8.2	2.7
Cc1cccc(S(=O)(=O)N[C@H]2CC[C@@H](CCNC(=O)Nc3cc(F)ccc3F)O[C@H]2CO)c1	-7.9	-4.1	-3.8
CC(C)NC(=O)N(C)C[C@@H]1Oc2cc(-c3ccccc3)ccc2S(=O)(=O)N([C@H](C)CO)C[C@H]1C	-4.9	-3.9	-1.1
C[C@H]1CN([C@@H](C)CO)C(=O)CCCn2cc(nn2)CO[C@@H]1CN(C)C(=O)Nc1ccc(F)cc1	-1.7	-0.4	-1.4
CNC[C@@H]1Oc2ccc(NS(=O)(=O)c3cn(C)cn3)cc2CC(=O)N([C@H](C)CO)C[C@H]1C	4.3	1.9	2.4

Screening results: PubChem BioAssay, Broad Institute
